# PINK1 modulator: modulators of PINK1 expression | PINK1 immunofluorescence, high-content cytometry, 24 h | Potency, µM (titrated, usually from 76.6 µM), for inactives: top-dose activation (PINK1 increase), usual class: activators | 0.2% of 410,000 active | AID 624263; active = well fitted activation curve with a large enough effect; inconclusive = small, poorly fitted or top-dose-only effect; inactive = flat fitted curve, though single readings scatter; cell line not stated here;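 further: potency means the concentration at half of the fitted maximal effect; % of control where 0% means no effect; nearly all actives have a fitted effect of over 65% in size; a mitochondrial uncoupler was the plate control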
#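 Compound titrations (5 concentrations, 24 h) on a stable cell line; DMSO and CCCP controls. Endpoint: fixed-cell PINK1 immunofluorescence with mitochondrial, cell and nuclear markers, scanned by microplate cytometer.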
# Six1-Eya2 inh: Six1/Eya2 interaction inhibition; AlphaScreen GST-Six1/His-Eya2 binding, biochemical; hits give low values; control for the full effect not named in the record; AID 651725; activity change, % (test concentration not listed); 0.56% of 360,000 active; Q15475+O00167; in the data active = activity change below about -65%; inconclusive = about -30% to -65%; inactive = above about -30%; further: on the % scale 0 is the no-effect control and ±100 the full control effect; compound concentration not given in the record
#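 Homogeneous AlphaScreen proximity assay pairing GST-Six1 with His-tagged Eya2 (added as 5X mix: 250 nM and 500 nM) in 50 mM Tris pH 8.0, 300 mM NaCl, 1 mM TCEP. Glutathione donor and nickel acceptor beads; 1 h, 37 °C, dark.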
# TRPML1 ag: human mucolipin-1 channel agonism | Q9GZU1 | TRPML1-expressing cells, Ca2+ dye fluorescence, FDSS; host cell line not named in the record; reference of the full effect not given here | activation, % (concentration not given with the values) | 0.12% of 410,000 active; in the data active = activation above about 50%; inconclusive = about 30% to 50%; inactive = below about 30%; further: 0% is about no effect; the text of the record puts the active cut at 80%
# Target sequence (Q9GZU1 whole entry, looked up): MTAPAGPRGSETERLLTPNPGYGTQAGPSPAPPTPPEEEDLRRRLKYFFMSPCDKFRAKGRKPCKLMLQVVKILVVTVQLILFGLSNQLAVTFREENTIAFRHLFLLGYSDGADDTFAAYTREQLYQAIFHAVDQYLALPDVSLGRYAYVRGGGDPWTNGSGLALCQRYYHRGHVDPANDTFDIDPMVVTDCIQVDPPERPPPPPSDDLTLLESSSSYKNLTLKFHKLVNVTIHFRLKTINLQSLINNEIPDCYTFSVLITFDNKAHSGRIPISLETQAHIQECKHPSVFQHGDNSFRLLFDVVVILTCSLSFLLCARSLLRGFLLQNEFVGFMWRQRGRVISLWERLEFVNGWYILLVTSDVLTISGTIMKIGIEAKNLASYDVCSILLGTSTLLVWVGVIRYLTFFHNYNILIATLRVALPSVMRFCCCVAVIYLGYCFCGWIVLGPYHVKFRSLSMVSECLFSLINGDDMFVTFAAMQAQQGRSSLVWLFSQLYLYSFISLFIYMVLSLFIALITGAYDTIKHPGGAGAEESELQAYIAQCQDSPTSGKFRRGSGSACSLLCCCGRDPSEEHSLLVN
#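 Calcium fluorescence on an FDSS kinetic reader gave the read-out. Tet-induced TRPML1-DL cells were plated overnight, dye-loaded (Ca8 with quencher, 45-90 min, room temperature, dark), then read 110 s after compound addition, and again 110 s after 4uM final 54-4 (EC80).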
# CtBP-E1A blk: inhibitors of CtBP/E1A interaction | AID 651724 | activity change, % (test concentration not listed) | 0.49% of 340,000 active | AlphaScreen GST-E1A/His-CtBP binding, 1536-well; hits give low values; control for the full effect not named in the record; in the data active means activity change below about -65%; inconclusive means about -30% to -65%; inactive means above about -30%; further: on the % scale 0 is the no-effect control and ±100 the full control effect; compound concentration not given in the record
#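 Protein mix (5X: 125 nM each GST-E1A, His-CtBP) was incubated with pinned compound 2 h at 37 deg C in dark, in 50 mM Tris pH 8.0 buffer with 300 mM NaCl. Glutathione donor and nickel acceptor beads followed; AlphaScreen signal read after 1 h.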
# D2 ag: agonists of human D2 dopamine receptor (beta-arrestin). P14416. DiscoveRx PathHunter D2 beta-arrestin, luminescence, 90 min; 100% = 57 uM dopamine signal. activation, % (no concentration beside the values). 0.084% of 360,000 active; in the data active = activation above about 40%; inconclusive = about 15% to 40%; inactive = below about 15%; further: compound concentration not given in the record; the text of the record calls up to 30% inactive
# Target sequence (P14416 whole entry, looked up): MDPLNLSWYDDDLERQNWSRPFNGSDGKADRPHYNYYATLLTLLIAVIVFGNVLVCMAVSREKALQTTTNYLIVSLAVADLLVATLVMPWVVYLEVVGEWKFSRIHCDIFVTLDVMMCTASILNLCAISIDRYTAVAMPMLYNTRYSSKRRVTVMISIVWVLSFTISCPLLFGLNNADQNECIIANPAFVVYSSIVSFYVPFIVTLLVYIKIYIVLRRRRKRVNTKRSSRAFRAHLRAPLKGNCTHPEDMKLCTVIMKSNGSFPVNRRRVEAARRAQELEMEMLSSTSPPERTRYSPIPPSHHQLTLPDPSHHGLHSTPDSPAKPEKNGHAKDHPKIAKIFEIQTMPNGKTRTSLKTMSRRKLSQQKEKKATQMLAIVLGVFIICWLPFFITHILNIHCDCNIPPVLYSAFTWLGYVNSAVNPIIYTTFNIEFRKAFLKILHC
#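 Agonist mode: compounds alone added to overnight-plated D2 PathHunter cells for 90 min at 37 C, with 57 uM final dopamine (EC100) defining full response. Beta-arrestin recruitment detected by chemiluminescent reagent, read after 1 h at ambient temperature.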
# TRPML1 inh: inhibitors of human TRPML1 channel | Q9GZU1 | TRPML1-inducible cells, Ca2+ dye fluorescence, FDSS; hits give low values; inhibition of EC80 agonist-evoked calcium signal | activity change, negative = inhibition, % (no concentration beside the values) | 0.02% of 390,000 active | AID 624415; in the data active means activity change below about -50%; inconclusive means about -30% to -50%; inactive means above about -30%;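 further: stimulus is agonist 54-4 at its EC80 concentration; on the % scale 0 is the no-effect control and ±100 the full control effect; compound concentration not given in the record; the text of the record puts the active cut at -80%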
#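 Calcium fluorescence in TRPML1-DL cells induced overnight with Tet: a 110 s read after compound pin addition, then a 110 s antagonist read after challenge with 54-4 at 4 uM final (EC80).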
# * = called active by the depositor; ? = inconclusive; · = not tested or not shown; & = joins results of further samples; [ ] = dose if it differs, or a comment.
SMILES,PINK1 modulator,Six1-Eya2 inh,TRPML1 ag,CtBP-E1A blk,D2 ag,TRPML1 inh
CC(=O)NS(=O)(=O)c1ccc(NC(=O)C2c3ccccc3Oc3ccccc32)cc1,-0.6%,-3,0.5,-14,-4.2,4
COc1cc(NC(=S)Nc2cccnc2)cc(OC)c1OC,-0.7%[38.3 µM],0,-0.4,7,-0.5,0
O=C1NC(=O)C(Cc2ccc(O)cc2)N1 (configuration not stated),-0.5%,6,·,7,-3.0,·
Cc1ccc(NC(=O)c2cccc(S(=O)(=O)N3CCc4ccccc4C3)c2)nc1,-3.2%,-2,1.2,-6,-2.0,0
Cc1c(-c2nc(-c3ccc(C(C)(C)C)cc3)no2)n(C)oc1=O,1.3%,-3,3.5,-5,11,55
NS(=O)(=O)c1ccc(CCNC(=O)CCc2nc3sc4c(c3c(=O)[nH]2)CCCC4)cc1,3.9%,21,-0.1,0,-2.8,-12
COc1ccc2c(c1OC)C(=O)N(C(C)C(=O)O)C2=O (configuration not stated),·,5,0.3,9,-1.8,-9
COc1ccccc1NC(=O)N(C)C[C@H]1Oc2ncc(C#CCN(C)C)cc2C(=O)N([C@H](C)CO)C[C@H]1C,0.8%,10,0.1,4,-8.4,-7
COc1ccc(Cl)cc1NC(=O)CN(C)C(=O)c1ccc2c(c1)OCCO2,-0.9%,-1,-1.3,2,-9.2,2
CCNc1ccc(C(=O)OCC)cc1NC(=O)c1cccc(N(C)C)c1,·,?,-0.3,-28,-3.2,-17
COc1ccc(N2Cc3ccccc3C2)cc1Cl,3.0%,10,-0.1,-20,0.3,1
Cc1ccc(OCC(=O)Nc2ccccc2Sc2ccc(Cl)cc2)c([N+](=O)[O-])n1,3.6%,-1,2.7,?,2.2,8
COc1ccc(-c2ccc3c(c2)[C@@H]2C[C@H]4[C@@H](C(=O)N2CC3)[C@H](C)ON4C)cc1,0.4%,-2,3.4,2,1.0,14
CC(C)[C@H](NC(=O)[C@@H]1Cc2ccccc2CN1C(=O)OC(C)(C)C)C(=O)NC1CCCC1,-1.1%,19,0.8,·,-6.4,-1
O=C(c1cccc2c1C(=O)N(Cc1cccnc1)C2)N1CCN(c2ccccc2)CC1,0.6%,0,-0.4,3,-5.0,-10
O=C(/C=C/Nc1ccc(F)c(Cl)c1)c1ccccc1,14%,5,2.8,·,2.1,24
CN(C)C(=O)CCc1ccc2c3c([nH]c2c1)[C@]1(C)[C@@H](C(=O)N2CCCCC2)C[C@H](CC(=O)NCC24CC5CC(CC(C5)C2)C4)C(=O)N1CC3,12%,-3,2.0,-2,-0.8,2
COc1ccc(C)c2sc(NC(=O)c3cccc(N4C(=O)CCC4=O)c3)nc12,1.0%,2,0.0,8,-4.0,53
COc1ccc(Cc2c(-c3ccc(F)cc3)nc3c4ccccc4ccn23)c(C)c1,-0.4%,-3,0.8,2,-6.5,21
COc1ccc(CC(NC(=O)c2ccccc2)C(=O)NCC(=O)O)cc1 (configuration not stated),-0.6%,4,0.6,-16,0.4,0
CN(c1ccccc1)S(=O)(=O)c1ccc(C(=O)Nc2nccs2)cc1,2.8%,18,-1.0,23,1.0,24
O=C(c1cnn2c(C(F)(F)F)cc(-c3ccc4c(c3)OCO4)nc12)N1CCCCC1,-0.8%,1,0.0,3,-4.2,-11
CCOc1ccc2c(c1)/C(=N/N1C(=O)c3ccccc3C1=O)C(=O)N2,0.4%,0,1.2,-14,-11,10
O=C(NCCc1ccccc1)C1CCN(C2CCN(Cc3ccc(CO)o3)CC2)CC1,-1.7%,0,-0.6,5,-0.2,-1
COc1ccc(CSc2ccc(S(=O)(=O)N3CCCC3)cn2)cc1F,-0.6%,0,-0.2,6,-0.8,-5

# Some of these compounds in order of count of non-hydrogen atoms, rising.
SMILES,PINK1 modulator,Six1-Eya2 inh,TRPML1 ag,CtBP-E1A blk,D2 ag,TRPML1 inh
O=C1NC(=O)C(Cc2ccc(O)cc2)N1 (configuration not stated),-0.5%,6,·,7,-3.0,·
O=C(/C=C/Nc1ccc(F)c(Cl)c1)c1ccccc1,14%,5,2.8,·,2.1,24
COc1ccc(Cl)cc1NC(=O)CN(C)C(=O)c1ccc2c(c1)OCCO2,-0.9%,-1,-1.3,2,-9.2,2
COc1ccc(C)c2sc(NC(=O)c3cccc(N4C(=O)CCC4=O)c3)nc12,1.0%,2,0.0,8,-4.0,53
COc1ccc(Cc2c(-c3ccc(F)cc3)nc3c4ccccc4ccn23)c(C)c1,-0.4%,-3,0.8,2,-6.5,21
CN(C)C(=O)CCc1ccc2c3c([nH]c2c1)[C@]1(C)[C@@H](C(=O)N2CCCCC2)C[C@H](CC(=O)NCC24CC5CC(CC(C5)C2)C4)C(=O)N1CC3,12%,-3,2.0,-2,-0.8,2

# Copied from the list:
# Entry of CC(=O)NS(=O)(=O)c1ccc(NC(=O)C2c3ccccc3Oc3ccccc32)cc1 in TRPML1 inh: 4
# Entry of COc1ccccc1NC(=O)N(C)C[C@H]1Oc2ncc(C#CCN(C)C)cc2C(=O)N([C@H](C)CO)C[C@H]1C in CtBP-E1A blk: 4

# The main list resumes; the four compounds before the break are reprinted first.
SMILES,PINK1 modulator,Six1-Eya2 inh,TRPML1 ag,CtBP-E1A blk,D2 ag,TRPML1 inh
O=C(c1cnn2c(C(F)(F)F)cc(-c3ccc4c(c3)OCO4)nc12)N1CCCCC1,-0.8%,1,0.0,3,-4.2,-11
CCOc1ccc2c(c1)/C(=N/N1C(=O)c3ccccc3C1=O)C(=O)N2,0.4%,0,1.2,-14,-11,10
O=C(NCCc1ccccc1)C1CCN(C2CCN(Cc3ccc(CO)o3)CC2)CC1,-1.7%,0,-0.6,5,-0.2,-1
COc1ccc(CSc2ccc(S(=O)(=O)N3CCCC3)cn2)cc1F,-0.6%,0,-0.2,6,-0.8,-5
Nn1c(SCc2ccc(F)cc2)nnc1-c1cccnc1,1.3%,6,-0.4,13,-13,7
COc1ccc(C)cc1NC(=O)CCCN1C(=S)NC(C)(C)CC1C (configuration not stated),?,-3,0.5,23,-2.1,9
O=C(O)CN1C(=O)/C(=C\c2cc(Br)ccc2OCc2ccccc2Cl)SC1=S,11%,-17,1.5,-17,-2.6,8
COc1ccc(CN2C[C@H](C)[C@@H](CC(=O)NCc3ccccc3)C2=O)cc1,0.5%,3,-0.2&0.0,2,-2.1,-7
Cc1ccccc1C(=O)NC1CCN(CC(=O)NC2CCCCC2)CC1,3.4%,-3,1.0,-11,-2.3,20
CCn1c2ccccc2c2cc(NC(=O)COc3ccc(C)cc3C)ccc21,3.9%,·,1.1,·,·,14
CCc1nnc(NC(=O)c2cccc(S(=O)(=O)N3CC(c4ccccc4)CC3=O)c2)s1 (configuration not stated),0.4%,4,0.4,-8,-0.6,0
COc1ccccc1-n1c(SCC(N)=O)nnc1-c1ccccc1,0.1%,5,0.9,3,-1.5,9
Fc1ccc(-n2ncc3c(NCCCc4ccccc4)ncnc32)cc1,11%,·,1.9,·,·,27
CC(=O)Nc1ccc(N2C(=O)C3C4C=CC(CC4)C3C2=O)cc1 (configuration not stated),-1.6%,1,0.4,5,-2.3,-2
CCCn1c(SCC(=O)NCCCN2CCCC2=O)nc2ccccc2c1=O,1.5%,7,-0.4,·,-6.8,-7
COC(=O)[C@]12CCCCC=C1N(Cc1ccccc1)C(=O)[C@H](CC(=O)N1CCN(C(=O)c3ccco3)CC1)C2,2.2%,-6,-0.7,1,·,·
COc1ccc(OCC(O)CNC(=O)Nc2cc(F)ccc2C)cc1 (configuration not stated),1.3%,3,-1.0,·,-3.5,2
CC(=O)c1c(C)nn(CC(=O)NC2CCCN(Cc3ccc(CC(C)C)cc3)C2)c1C (configuration not stated),1.8%,-1,-0.8,1,-1.1,-8
Cc1ccc(CN2CCN(CC(=O)N3CCC(C(N)=O)CC3)C2=O)cc1,1.2%,-1,-0.8,3,-4.9,-2
Cc1ccc(CNC(=O)C(NS(=O)(=O)c2cccs2)C(C)C)cc1 (configuration not stated),0.3%,6,-1.2&0.0,4,1.5,6&-22
CCOC(=O)Cc1csc(NC(=O)/C=C/c2ccc(Br)o2)n1,-0.8%,0,-0.3,·,-3.9,3
C=CCC[C@H](Cc1ccc(F)cc1)C(=O)OC[C@@H](Cc1c[nH]c2ccccc12)NC(=O)[C@@H](CC=C)CC(=O)NCCO,9.1%,-7,-0.3,-13,1.4,2
CN1C(=O)C2(c3ccccc31)N(C)CC(c1ccccn1)C21SC(=S)N(Cc2ccco2)C1=O (configuration not stated),-3.8%,?,0.6,-24,-3.4,-1
CCc1ccc(S(=O)(=O)c2nnn(-c3cccc(C)c3)c2N)cc1,0.2%,·,3.7,·,·,0
Cc1ccc(-c2nn3c(C)nnc3s2)cc1N,-4.1%[38.3 µM],0,1.4,3,-1.3,32
Cc1ccc(NC(=O)C2C3/C=C\CCCCC32)cc1C (configuration not stated),4.8%,-1,-0.3,8,-2.4,2
Cc1cc(C(=O)CN2C(=O)C(=O)N(Cc3ccco3)C2=O)c(C)n1CCc1ccccc1,6.9%,-14,0.5,-3,1.7,-4
C=CCNC(=O)Cn1nnc(-c2ccc(-c3ccc(OC)cc3)cc2)n1,8.2%,4,1.0,-4,-2.4,15
Cc1ccc(C)c(OCC(=O)N/N=C\c2cccn2C)c1,3.2%,-9,4.6,7,4.4,24
COc1ccc(/C=C2\SC(=S)N(CCC(=O)Nc3ccccn3)C2=O)cc1OC,?,8,-0.1,-1,8.1,-11
CC(C)(c1ccccc1)c1ccc(OCCN2CCOCC2)cc1,7.8%,-3,1.8,·,-2.8,29
CCSc1nnc(NC(=O)Cc2cc(OC)c(OC)c(OC)c2)s1,-0.6%,5,0.7,-9,-3.3,-3
CC(=O)NC(CC(=O)N(Cc1ccccc1)c1cccc(C)c1)c1ccccc1 (configuration not stated),-2.3%,-2,4.6,-2,-0.1,-14

# Among those listed so far, 2 have bromine:
SMILES,PINK1 modulator,Six1-Eya2 inh,TRPML1 ag,CtBP-E1A blk,D2 ag,TRPML1 inh
O=C(O)CN1C(=O)/C(=C\c2cc(Br)ccc2OCc2ccccc2Cl)SC1=S,11%,-17,1.5,-17,-2.6,8
CCOC(=O)Cc1csc(NC(=O)/C=C/c2ccc(Br)o2)n1,-0.8%,0,-0.3,·,-3.9,3
